Compound activity from PubChem BioAssay.
Lassa entry inh = Lassa virus entry inhibition. Lassa virus pseudotype entry inhibition, cell reporter; control for the full effect not named in the record. Potency, µM (series often up to 37.9 µM), without a hit: at the highest dose activity change, negative = inhibition, usual class: inhibitors. 300,000 compounds, 1.2% hits. AID 540256; active means well fitted inhibition curve with a large enough effect; inconclusive means small, poorly fitted or top-dose-only effect, or effect the other way; inactive means flat fitted curve, though single readings scatter; tested in HEK293 cells; note: % is set by controls: 0 for no effect and ±100 for the full control effect; nearly all actives have a fitted effect of over 50% in size; luciferase read-out
MARV entry inh = Marburg virus entry inhibition; Marburg virus pseudotyped entry inhibition, cell reporter; control for the full effect not named in the record; about a third of the inactives were read at about 46 µM; 300,000 compounds, 1.8% hits; Potency, µM (doses to about 37.8 µM), inactives show at the highest dose activity change, negative = inhibition, usual class: inhibitors; active = well fitted inhibition curve with a large enough effect; inconclusive = small, poorly fitted or top-dose-only effect, or effect the other way; inactive = flat fitted curve, though single readings scatter; tested in HEK293 cells; about a fifth of its hits are not listed in these tables; note: % is set by controls: 0 for no effect and ±100 for the full control effect; luciferase read-out
NS1 inh = influenza NS1 inhibition; S. cerevisiae slowed by influenza A NS1, growth recovery by OD600; Potency, µM (doses to about 46.1 µM), without a hit: at the highest dose activity, positive = more growth; 270,000 compounds, 0.4% hits; AID 2326; active means well fitted rising curve with a large enough effect; inconclusive means small, poorly fitted or top-dose-only effect; inactive means no such curve, though single readings can be large or run the other way; note: nearly all actives have a fitted effect of over 50% in size
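Compounds were scored for reversing the slow growth caused by influenza A NS1 in S. cerevisiae, measured by optical density at 600 nm. Assay medium contained 2% galactose at pH 6.0; NS1-free yeast of the same strain were the positive control.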
Cruzain noTriton = blocks cruzain activity in detergent-free assay; purified cruzain, Z-FR-AMC fluorescence, no detergent; Potency, µM, for inactives: max response, negative = inhibition, actives largely listed as inhibitors; P25779; AID 1476; 200,000 compounds, 2.3% hits;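 note: plate controls were enzyme without inhibitor for no effect and buffer without enzyme for full effect; nearly all actives have a fitted effect of over 40% in size; top concentration of the series not given in the record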
Target sequence (P25779 123-467 limits assumed): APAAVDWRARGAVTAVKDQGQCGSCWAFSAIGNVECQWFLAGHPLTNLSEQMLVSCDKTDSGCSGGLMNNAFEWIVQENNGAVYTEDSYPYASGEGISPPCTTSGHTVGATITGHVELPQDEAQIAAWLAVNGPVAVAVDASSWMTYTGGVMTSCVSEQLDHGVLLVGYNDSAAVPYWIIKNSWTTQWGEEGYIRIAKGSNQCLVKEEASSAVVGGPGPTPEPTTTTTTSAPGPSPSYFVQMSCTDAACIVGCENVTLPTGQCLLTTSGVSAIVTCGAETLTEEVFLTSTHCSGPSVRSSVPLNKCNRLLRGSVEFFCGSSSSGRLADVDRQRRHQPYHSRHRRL
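Purified cruzain at 1.5 nM, pre-incubated 15 min with compound at room temperature in 100 mM sodium acetate pH 5.5, 5 mM DTT, 0.00005% Triton X-100. Reaction started with 2 uM Z-FR-AMC; AMC fluorescence increase over 60 s gives rate.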
RE007 growth inh = less growth of the S. pombe RE007 Vpr strain | S. pombe RE007 Vpr strain, BacTiter-Glo ATP luminescence, 24 h; control for the full effect not named in the record | Potency, µM (doses to about 92.2 µM), inactives show at the top dose activity change, negative = less growth | 360,000 compounds, 0.21% hits; active = well fitted falling curve with a large enough effect; inconclusive = small, poorly fitted or top-dose-only effect; inactive = no such curve, though single readings can be large or run the other way;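 note: % is set by controls: 0 for no effect and ±100 for the full control effect; nearly all actives have a fitted effect of over 50% in size; the assay follows cell death caused by Vpr and the record does not say whether a fall means rescue or toxicity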
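Fission yeast strain RE007, carrying one chromosomally integrated HIV-1 vpr copy, was seeded at OD 0.01 in PMG+AL medium with 23 nL pinned compound. After 24 h at 30 °C and 99% humidity, viability was read by BacTiter-Glo luminescence.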
StopGo reporter = FMDV 2A StopGo reporter, luciferase signal; Potency, µM (titrated, usually from 57.9 µM), without a hit: top-dose signal change, negative = less light; AID 1159524; 410,000 compounds, 1.2% hits; human cells with a luciferase reporter of 2A StopGo recoding; control for the full effect not named in the record; active = well fitted falling curve with a large enough effect; inconclusive = small, poorly fitted or top-dose-only effect; inactive = no such curve, though single readings can be large or run the other way; tested in HEK293T cells; note: % is set by controls: 0 for no effect and ±100 for the full control effect; nearly all actives have a fitted effect of over 45% in size; luciferase light after 4 h
Cruzain inh Det = blocks cruzain activity in presence of Triton detergent. P25779. purified cruzain, Z-FR-AMC fluorescence, 0.01% Triton. Potency, µM, for inactives: max response, negative = inhibition, hits mostly inhibitors. 200,000 compounds, 0.43% hits. AID 1478;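 note: plate controls were neutral wells for no effect and buffer without enzyme for full effect; nearly all actives have a fitted effect of over 40% in size; top concentration of the series not given in the record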
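Enzyme 1.5 nM, Z-FR-AMC 2 uM, NaOAc 100 mM pH 5.5, DTT 5 mM, Triton X-100 0.01%; 15 min RT compound preincubation; kinetic ex360/em450, 60 s delta.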
SARS PLP yeast = blocks SARS-CoV papain-like protease in a yeast assay; S. cerevisiae expressing SARS-CoV PLpro, growth rescue; control for the full effect not named in the record; Potency, µM (highest dose often 32.9 µM), inactives show top-dose activity, positive = growth rescue; 330,000 compounds, 0.19% hits; AID 485353; active means well fitted rising curve with a large enough effect; inconclusive means small, poorly fitted or top-dose-only effect; inactive means no such curve, though single readings can be large or run the other way; note: 0% is about no effect; nearly all actives have a fitted effect of over 55% in size; growth read by luminescence after 48 h
* hit, by the source's call; ? = inconclusive; . = not tested or not shown; & = joins results of further samples; [ ] = dose if it differs, or a comment. Unless noted, calls come from the whole dose curve; as a rule, active = well fitted curve in the direction sought with a large enough effect; inconclusive = small, poorly fitted or top-dose-only effect, or another doubt; inactive = no such curve, though single readings can be large; an effect the other way counts as inactive or inconclusive. Potency is the fitted concentration of half-maximal effect.

#	SMILES	Lassa entry inh	Cruzain inh Det	Cruzain noTriton	StopGo reporter	NS1 inh	RE007 growth inh	MARV entry inh	SARS PLP yeast
1	Cc1c2cnn(CC(=O)NC(C)C)c(=O)c2c(C)n1Cc1cccc(Cl)c1	7%[46.1 µM]	-1.1%	20%	-17%	.	.	-12%[46.1 µM]	.
2	COc1cccc(NC(=O)c2sc3nc(C)c(C(=O)Nc4ccc(C)cc4C)c(-c4ccc(Br)cc4)c3c2N)c1	12%[46.1 µM]	-2.5%	-4%	1%	.	.	?	.
3	CCOc1ccc(-n2ccc(=O)c(C(=O)O)n2)cc1	22%[46.1 µM]	.	.	-9%	3%	9%	-14%[46.1 µM]	1%
4	NS(=O)(=O)c1ccc(NC(=S)Nc2ccn(Cc3cccc4ccccc34)n2)cc1	3.5µM*	.	.	?	.	-3%	6.3µM*	4%
5	CC(C)c1nc(N2CCN(C(=O)c3ccccc3)CC2)c(C#N)c2c1COC(C)(C)C2	?	-8.9%	11%	-25%	-67%	43%	12µM*	-2%
6	Cc1ccc(NC(=O)C2CCCN(S(=O)(=O)c3cccc4cccnc34)C2)c(C)c1 (stereo unspecified)	?	-2.4%	-2%	?	.	.	-10%[46.1 µM]	.
7	COc1cccc(-n2c(/C=C/c3ccc(O)c(O)c3)nc3ccccc3c2=O)c1	?	.	.	-19%	6%	-4%	?	0%
8	CCN(CC)CCC(=O)N1c2ccccc2CCc2ccc(NC(=O)OC)cc21	.	.	.	-8%	-3%	-6%	.	3%
9	COc1cccc(-c2ccc(C#N)c(SCC(=O)NCc3ccco3)n2)c1	.	.	.	1%	3%	16%	.	0%
10	O=C(COc1ccc2ccccc2c1)N1CCN(Cc2ccncc2)CC1	10%	6.3%	-2%	-21%	1%	18%	-40%	5%
11	CCOC(=O)COc1ccc2c(C#N)c3ccccn3c2c1	-1%	.	.	-23%	-1%	2%	3%	-2%
12	CC1(C)Cc2cccc(OCC(=O)Nc3nccs3)c2O1	?	2.8%	-5%	0%	-15%	?	?	-1%
13	CCCCCCCC(=O)O	.	8.6%&6.4%	5%&-10%	-27%	.	-16%	.	4%
14	COc1ccccc1N(Cc1ccccc1)S(=O)(=O)c1cccc(C(=O)Nc2cccc(C)n2)c1	.	.	.	-3%	1%	4%	.	-13%
15	O=C(Nc1ccccc1)c1ccc(Br)c(S(=O)(=O)Nc2cccnc2)c1	8%	-29%	-17%	70%[activator]	20%	0%	?	-4%
16	C/C(=N\NC(=O)COc1ccc(C(C)(C)C)cc1)c1cc2ccccc2o1	3.2µM*	-9.9%	14%	-13%	22%	11%	10µM*	-10%
17	O=C1c2ccccc2C(=O)N1CC(O)COCc1ccccc1 (stereo unspecified)	-1%	1.4%	2%	.	2%	-14%	23%	-8%
18	C=CCn1c(CCNC(=O)c2ccco2)nc2ccccc21	23%	.	.	-9%	5%	-3%	?	-1%
19	CN(CC(=O)Nc1ccc(Cl)cc1)C(=O)CNC(=O)c1ccc2c(c1)OCO2	-6%	.	.	14%	.	1%	?	.
20	Cn1c(SCC(=O)Nc2cc(=O)n(C)c(=O)n2C)nnc1-c1cccs1	.	-3.5%	1%	.	4%	.	2%	-3%
21	COCCCNc1ncnc2c1cnn2-c1ccc(F)cc1	?	0.8%	-12%	9%	.	.	.	.
22	FC(F)(F)c1cccc(Cc2noc(CN3CCCC3)n2)c1	4%[46.1 µM]	.	.	-2%	1%	0%	-22%[46.1 µM]	2%
23	O=C1/C(=C\c2ccco2)CCC/C1=C\c1ccco1	?	?	?	10%	16%	8%	?	-27%
24	O=C(Cc1ccc(Cl)cc1)N/N=C/c1ccccc1	.	.	.	5%	9%	-4%	.	1%
25	CCOc1ccc(N/C=C/C(=O)c2cc(OC)c(OC)c(OC)c2)cc1	.	.	.	-23%	10%	-13%	.	3%
26	CCOC(=O)CC(NC(=O)c1cccc2c1C(=O)N(Cc1cccnc1)C2)c1ccc(OC(C)C)cc1 (stereo unspecified)	0%[46.1 µM]	.	.	32%[activator]	.	-24%	-18%[46.1 µM]	0%
27	O=C(c1cccs1)N1CCN(Cc2nc3ccccc3c(=O)[nH]2)CC1	-8%	2.7%	6%	-9%	1%	-22%	-7%[46.1 µM]	4%
28	COc1cc(/C=C/C(=O)OCC(=O)Nc2ccc(C)cc2[N+](=O)[O-])ccc1O	.	.	.	-16%	2%	-1%	.	0%
29	CCOc1ccc(NC(=O)Nc2cc(OCC(F)(F)F)cc(OCC(F)(F)F)c2)cc1	?	0.4%	6%	-12%	14%	-3%	?	20%
30	Cc1cccc(CC(C)NC(=O)c2oc3c(F)cccc3c2C)n1 (stereo unspecified)	8%[46.1 µM]	.	.	-8%	-9%	-20%	-2%[46.1 µM]	1%
31	Cc1cccc(OCC(=O)NNC(=O)c2cccs2)c1	-15%	.	.	-8%	.	4%	7%[46.1 µM]	3%
32	C=CCN1C(=O)/C(=C\c2ccco2)C(C(=O)OC)=C1C	3%	-14%	-25%	-4%	?	-15%	1%	7%
33	COc1cccc(-c2ccc(NC(=O)C3CCCN(Cc4cc(C)[nH]n4)C3)cc2)c1 (stereo unspecified)	-11%	.	.	-6%	-5%	5%	?	-5%
34	CCC(=O)NCc1ccc(-c2nc3ncccc3o2)cc1	.	.	.	7%	-2%	-3%	.	2%
35	CCN(CC)CCN1C(=O)c2oc3ccccc3c(=O)c2C1c1ccc(F)cc1 (stereo unspecified)	4%	1.0%	1%	-2%	-6%	1%	-9%	3%
36	Cn1cccc1C(=O)NNC(=O)COc1ccccc1F	27%[46.1 µM]	.	.	30%[activator]	3%	-8%	0%[46.1 µM]	-6%
37	COC(=O)c1ccc(C2C(C(=O)c3cc4ccccc4o3)=C(O)C(=O)N2CCN2CCOCC2)cc1 (stereo unspecified)	.	.	.	0%	6%	-6%	.	1%
38	CC1(C)NC(=O)N(CCOCCOc2c(Cl)cc(Cl)cc2Cl)C1=O	-2%	-1.4%	27%	-4%	-8%	6%	-16%	11%
39	CCOC(=O)C1CCN(C(c2cc(OC)c(OC)c(OC)c2)c2sc3nc(C)nn3c2O)CC1 (stereo unspecified)	.	-1.9%	20%	-8%	-27%	-21%	.	0%
40	CC(C(=O)O)n1c2ccccc2c2cnn(C)c(=O)c21 (stereo unspecified)	.	.	.	-10%	6%	3%	.	0%
41	O=C(/C=C/c1ccc([N+](=O)[O-])cc1)OCC(=O)N1CCCC1	7%	.	.	-8%	.	6%	?	-1%
42	Cn1cc(CN2CCC(CO)(CCCc3ccccc3)CC2)c(-c2ccccc2)n1	.	.	.	-19%	?	-4%	.	0%
43	CC(C)=CCN1CCN(Cc2ccc(C#CC(C)(C)O)s2)CC1CCO (stereo unspecified)	2%	.	.	-5%	0%	-8%	-1%[46.1 µM]	0%
44	CCCCn1nc(NC(=O)CCC)c2cc3cc(OC)ccc3nc21	13%	.	.	29%	-1%	-7%	2%	1%
45	COc1ccccc1N1CCN(CC(=O)N(CC(C)C)c2c(N)n(CC(C)C)c(=O)[nH]c2=O)CC1	18%	.	.	-17%	.	-5%	-8%[46.1 µM]	-1%
46	CCN(C(=O)COC(=O)Cc1c[nH]c2ccccc12)C1CCS(=O)(=O)C1 (stereo unspecified)	?	.	.	1%	3%	7%	14%[46.1 µM]	1%
47	O=C1CCC(=O)N1CNc1ccccn1	?	2.7%	-2%	-23%	2%	-8%	5%&5%&5%	-6%
48	CCOC(=O)c1c[nH]n(-c2ccccc2)c1=O	5%[46.1 µM]	.	.	15%	.	10%	0%[46.1 µM]	1%
49	Cc1c(Cl)cccc1NC(=O)CCS(=O)(=O)c1cccc2nonc12	.	.	.	3%	13%	6%	-20%[46.1 µM]	1%
50	c1ccc2n[nH]nc2c1	5%	6.7%	3%	-11%	.	1%	24%	.

Next section
#	SMILES	Lassa entry inh	Cruzain inh Det	Cruzain noTriton	StopGo reporter	NS1 inh	RE007 growth inh	MARV entry inh	SARS PLP yeast
51	CN(C)S(=O)(=O)c1ccc(C(=O)OCCc2ccccc2)cc1	-3%	.	.	46%[activator]	4%	3%	30%[46.1 µM]	0%
52	COc1ccccc1/C=C1\SC(=S)N(Nc2nc(C)cc(C)n2)C1=O	-1%	-2.3%	-24%	?	4%	5%	-1%	4%
53	COc1ccc(OC)c(/C=N\NC(=O)c2cc3c(ccc4ccccc43)o2)c1	.	.	.	?	9%	-10%	.	-8%
54	O=C(Nc1ccnn1C1CCN(C(=O)c2ccc(F)cc2)CC1)C1CCOC1 (stereo unspecified)	10%	.	.	-14%	17%	-3%	19%	1%
55	Cc1nc2ccccc2n1S(=O)(=O)c1ccc(Br)cc1	-1%	-3.9%	15%	-2%	-2%	-11%	21%	-6%
56	COc1ccc(N2C(=O)c3cc4ccccc4cc3C2=O)cc1	.	.	.	0%	2%	12%	.	0%
57	Cc1ccc(NC(=O)COC(=O)c2ccc(C)c(S(=O)(=O)N3CCOCC3)c2)cc1	9%	.	.	-4%	.	-1%	25%	-2%
58	CCOC(=O)c1c(-c2ccc(F)cc2)csc1NC(=O)C1CC=CCC1C(=O)O (stereo unspecified)	9%[46.1 µM]	.	.	11%	14%	5%	0%[46.1 µM]	-1%
59	CCC(C)CCN1C(Nc2ccccc2)=NC[C@@H]1Cc1ccccc1 (stereo partly specified)	.	.	.	?	-23%	-2%	.	0%
60	CCOc1ccccc1-c1noc(CCCC(=O)NC2CCCCC2)n1	-8%	.	.	0%	12%	-21%	22%[46.1 µM]	-1%
